TRPV1 PAM = potentiators of human vanilloid receptor 1 (TRPV1); Q8NER1; TRPV1-expressing cells, Fluo-8 calcium influx, capsaicin EC20 potentiation; host cell line not named in the record; control for the full effect not named in the record; potentiation, % at 8.33 µM; hit rate 0.02% among 320,000; AID 540277; active means potentiation above 80%; inconclusive means 30% to 80%; inactive means below 30%; also: 0% is about no effect
Target sequence (Q8NER1 whole entry, looked up): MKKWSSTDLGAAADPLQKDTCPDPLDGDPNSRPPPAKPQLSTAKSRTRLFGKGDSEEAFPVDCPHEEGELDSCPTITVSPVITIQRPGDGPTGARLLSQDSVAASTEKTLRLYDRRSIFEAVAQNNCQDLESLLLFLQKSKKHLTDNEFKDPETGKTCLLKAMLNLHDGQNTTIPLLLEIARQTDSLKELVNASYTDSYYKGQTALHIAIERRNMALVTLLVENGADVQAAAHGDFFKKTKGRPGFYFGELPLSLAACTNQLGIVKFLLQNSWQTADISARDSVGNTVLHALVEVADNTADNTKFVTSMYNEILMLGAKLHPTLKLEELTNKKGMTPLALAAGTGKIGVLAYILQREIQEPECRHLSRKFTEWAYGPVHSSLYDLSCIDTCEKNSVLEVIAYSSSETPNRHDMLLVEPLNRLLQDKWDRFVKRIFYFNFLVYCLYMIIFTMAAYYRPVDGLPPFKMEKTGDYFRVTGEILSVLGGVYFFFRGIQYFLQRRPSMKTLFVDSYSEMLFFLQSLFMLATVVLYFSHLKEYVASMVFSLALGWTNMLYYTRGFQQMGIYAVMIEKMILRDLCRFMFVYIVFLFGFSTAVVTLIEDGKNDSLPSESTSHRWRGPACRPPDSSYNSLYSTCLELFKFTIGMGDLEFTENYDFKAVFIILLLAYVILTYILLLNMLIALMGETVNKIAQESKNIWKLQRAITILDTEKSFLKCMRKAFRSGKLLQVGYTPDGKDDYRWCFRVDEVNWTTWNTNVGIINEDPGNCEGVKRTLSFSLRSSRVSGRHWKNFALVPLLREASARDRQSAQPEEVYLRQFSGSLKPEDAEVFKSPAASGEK
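Cells expressing TRPV1 were dye-loaded with Fluo-8 and read kinetically: 10 s baseline, 3 min after compound (agonist portion), then 2 min after EC20 capsaicin (allosteric enhancer portion). Calcium-bound dye fluorescence at 480/520 nm.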
CtBP-E1A inh = blocks the CtBP interaction with E1A. AlphaScreen GST-E1A/His-CtBP binding, 1536-well; stronger effect = lower value; control for the full effect not named in the record. activity change, % (no concentration beside the values). hit rate 0.49% among 340,000; in the data active means activity change below about -65%; inconclusive means about -30% to -65%; inactive means above about -30%; also: % is scaled to controls: 0 for no effect and ±100 for the full control effect; compound concentration not given in the record
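Steps: dispense buffer (Tris pH 8.0, NaCl 300 mM, TCEP 1 mM, BSA, Tween 20); add 5X protein mix (GST-E1A, His-CtBP, 125 nM each); pin 23 nL compound; 2 h at 37 °C, dark; add 5X beads (50 ug/mL); 1 h; read.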
PINK1 modulator = PINK1 expression modulation; PINK1 immunofluorescence, high-content cytometry, 24 h; Potency, µM (titrated, usually from 76.6 µM), inactives show at the highest dose activation (PINK1 increase), most hits filed as activators; hit rate 0.2% among 410,000; AID 624263; active = well fitted activation curve with a large enough effect; inconclusive = small, poorly fitted or top-dose-only effect; inactive = flat fitted curve, though single readings scatter; cell line not stated here;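 also: potency is read from the fitted curve at half-maximal effect; % of control where 0% means no effect; nearly all actives have a fitted effect of over 65% in size; a mitochondrial uncoupler was the plate control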
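Compound titrations (5 concentrations, 24 h) on a stable cell line; DMSO and CCCP controls. Endpoint: fixed-cell PINK1 immunofluorescence with mitochondrial, cell and nuclear markers, scanned by microplate cytometer.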
D2 ag = human D2 receptor agonism in beta-arrestin assay; hit rate 0.084% among 360,000; AID 624465; DiscoveRx PathHunter D2 beta-arrestin, luminescence, 90 min; 100% = 57 uM dopamine signal; P14416; activation, % (concentration not given with the values); in the data active = activation above about 40%; inconclusive = about 15% to 40%; inactive = below about 15%; also: compound concentration not given in the record; the text of the record calls up to 30% inactive
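Agonist mode: compounds alone added to overnight-plated D2 PathHunter cells for 90 min at 37 C, with 57 uM final dopamine (EC100) defining full response. Beta-arrestin recruitment detected by chemiluminescent reagent, read after 1 h at ambient temperature.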
Six1-Eya2 blk = blocks human Six1 binding to Eya2 | Q15475+O00167 | AlphaScreen GST-Six1/His-Eya2 binding, biochemical; stronger effect = lower value; control for the full effect not named in the record | hit rate 0.56% among 360,000 | activity change, % (test concentration not listed) | AID 651725; in the data active = activity change below about -65%; inconclusive = about -30% to -65%; inactive = above about -30%; also: % is scaled to controls: 0 for no effect and ±100 for the full control effect; compound concentration not given in the record
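AlphaScreen with GST-Six1 and His-Eya2 (5X mix: 250 nM and 500 nM), glutathione donor and nickel acceptor beads; buffer 50 mM Tris pH 8.0, 300 mM NaCl, 1 mM TCEP; 1 h at 37 C in the dark.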
Sfp inh = Sfp phosphopantetheinyl transferase inhibition | Q9F4F7 | Potency, µM, inactives show max response, negative = inhibition, hits mostly inhibitors | hit rate 3.5% among 310,000 | Biochemical Sfp PPTase activity, qHTS; active = well fitted inhibition curve with a large enough effect; inconclusive = small, poorly fitted or top-dose-only effect, or another doubt; inactive = no such curve, though single readings can be large or run the other way;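 also: the enzyme is Sfp with the accession as filed and its product quenches rhodamine fluorescence; potency is read from the fitted curve at half-maximal effect; 0% = enzyme reaction without inhibitor and -100% = no enzyme wells; top concentration of the series not given in the record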
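Step 1, compound plus 15 nM Sfp-PPTase, 15 min, room temperature. Step 2, add rhodamine-CoA (5 uM) and BHQ-2-YbbR (12.5 uM). Step 3, read 525/598 nm fluorescence at 0 and 30 min.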
D2 PAM = positive allosteric modulators of human D2 dopamine receptor; P14416; DiscoveRx D2 beta-arrestin cells, luminescence, 90 min; 100% = 57 uM dopamine signal; potentiation, % (concentration not given with the values); hit rate 0.23% among 360,000; active = potentiation of 50% or more; inconclusive = 30% to 50%; inactive = 30% or less;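 also: compound concentration not given in the record; tested on top of an EC20 dose of dopamine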
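D2 cells co-treated with compound plus 50 nM dopamine (EC20) for 90 min at 37 deg C to detect potentiation. Beta-arrestin recruitment was read as enzyme-fragment luminescence after 1 h at ambient temperature. Full response was set by 57 uM dopamine.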
Active calls of the source: *; ? = inconclusive; nt = no result given; [ ] = another dose, or the depositor's remark.

SMILES | TRPV1 PAM | CtBP-E1A inh | PINK1 modulator | D2 ag | Six1-Eya2 blk | Sfp inh | D2 PAM
CCN1C(=O)/C(=C\N(C)C)S/C1=N\S(=O)(=O)c1ccc(C)cc1 | -6.8 | 9.7 | 2.0% | -3.9 | 9.6 | 21.3% | -3.2
O=C(Cn1c(=O)oc2ccccc21)Nc1ccc(F)c(F)c1 | -14.5 | nt | 1.5% | -0.3 | 2.2 | 7.1% | -11.5
NC(=O)[C@@H]1CCCN1Cc1nc(Cc2ccccc2Cl)no1 | 0.7 | 4.0 | -0.1% | -4.3 | 11.2 | 14.3% | -3.6
Cc1cccc(C)c1OCc1cc(C(=O)N2CCC[C@H]2C(N)=O)no1 | -7.3 | -11.4 | -2.4% | -1.6 | 2.2 | 9.3% | 1.0
COc1cccc(Cl)c1NC(=O)N1CCN(c2ccnc3cc(Cl)ccc23)CC1 | -11.2 | nt | 0.0% | 0.9 | 7.1 | 3.9% | -7.6
CCOc1ccc(CCNC(=O)C2CCCN(S(=O)(=O)N3CC(C)CC(C)C3)C2)cc1OCC (stereo not given) | -17.9 | 4.7 | 1.1% | 0.9 | 2.1 | 10.6% | -0.4
Cc1ccc(CNC(=O)c2ccc(COc3ccccc3)cc2)cc1 | -7.9 | -19.3 | 4.6% | -3.7 | -2.5 | 3.6% | -22.4
COc1cc([N+](=O)[O-])ccc1NC(=O)COC(=O)C1=NN(c2ccccc2)C(=O)CC1 | nt | nt | 0.4% | 1.2 | 6.5 | nt | 2.5
COc1ccccc1NC(=O)CN1CCN(C2c3ccccc3-c3ccccc32)CC1 | -5.9 | -19.1 | 1.8% | -1.8 | -10.3 | ? | -5.9
COc1ccc(OC)c(NC(=S)NCCSc2ccc(C)cc2)c1 | -6.4 | -29.4 | 2.2% | -0.6 | -29.6 | 10.6% | -14.1
FC(F)(F)c1cc(-c2ccco2)nc(NCc2ccc(Cl)cc2)n1 | -3.6 | 25.0 | 5.1% | 0.2 | 21.5 | 21.0% | 1.7
COc1ccc(-c2cc(C(F)F)n3ncc(C(=O)N4CCN(C(=O)c5ccco5)CC4)c3n2)cc1 | -34.1 | -0.7 | 0.4% | 2.7 | -4.2 | -25.4% | -0.8
COc1ccc(Cl)cc1NC(=O)Nc1ccc(Br)cn1 | 6.2 | 4.5 | 5.9%[38.3 µM] | -0.1 | 4.6 | 9.4% | -3.8
Cc1nnc(NC(=O)CSc2nnc(CNC(=O)c3ccccc3F)n2C(C)C)s1 | nt | 3.1 | 0.6% | -4.8 | 7.3 | nt | -4.0
O=C(OCC(=O)N1CCCc2ccccc21)c1cccc(C(F)(F)F)c1 | -6.9 | 1.3 | 0.8% | -4.7 | 9.2 | nt | -25.3
Cc1ccc(C2CN(c3ccccc3)CC2C(=O)c2ccc(F)cc2)cc1 (stereo not given) | -8.0 | -0.2 | 0.8% | -2.2 | -1.1 | -3.0% | 1.9
CCOc1ccccc1NC(=O)COc1ccc2c(c1)OCO2 | 21.9 | -4.1 | 6.4% | 8.4 | -4.7 | -1.9% | 6.5
Cc1ccc(NCCC(=O)c2cccc([N+](=O)[O-])c2)c(C)c1 | -3.3 | ? | 0.1%[38.3 µM] | -2.5 | ? | -12.9% | -12.5
OC(c1ccccc1)c1nc(-c2cncnc2)cs1 (stereo not given) | nt | 10.2 | -0.6% | -4.8 | 3.8 | nt | -4.2
Cc1cc(N2CCN(Cc3cn(C)nc3-c3cccc(Cl)c3)CC2)cc(C)n1 | 5.4 | -2.6 | 3.3% | -1.1 | -3.4 | -3.3% | -6.5
CCOc1ccccc1NC(=S)NC1CCCCC1 | 5.7 | -1.1 | 2.3% | -6.4 | -1.3 | -6.2% | -13.8
Cc1cc(NC(=O)CCC(=O)N(CC(=O)NCC2CCCO2)c2cccc(C)c2C)no1 (stereo not given) | 2.8 | 0.0 | 0.0% | -3.2 | -1.9 | 5.3% | 4.1
Cc1cccc(OC(C)C(=O)N2CCCc3ccccc32)c1 (stereo not given) | -3.6 | 3.4 | 3.2% | 0.1 | 1.3 | 15.6% | -5.1
Nc1c(C(=O)NCc2ccco2)nnn1-c1ccccc1 | nt | -0.3 | -0.3% | 0.8 | 0.0 | 6.1% | -8.8
C[C@@H](c1ccccc1)N1C[C@@H](COCc2ccccc2)Oc2cc(N3CCC[C@H]3C(N)=O)ccc2S1(=O)=O | nt | -3.6 | 1.3% | nt | -7.0 | nt | nt

Overlap with the part before: 2 entries, followed by the next part.
SMILES | TRPV1 PAM | CtBP-E1A inh | PINK1 modulator | D2 ag | Six1-Eya2 blk | Sfp inh | D2 PAM
Nc1c(C(=O)NCc2ccco2)nnn1-c1ccccc1 | nt | -0.3 | -0.3% | 0.8 | 0.0 | 6.1% | -8.8
C[C@@H](c1ccccc1)N1C[C@@H](COCc2ccccc2)Oc2cc(N3CCC[C@H]3C(N)=O)ccc2S1(=O)=O | nt | -3.6 | 1.3% | nt | -7.0 | nt | nt
CN(C)c1nc(Cl)nc(NCCOc2ccccc2)n1 | -0.1 | -3.6 | 15.4% | 0.7 | 7.3 | 10.0% | -8.2
CC(=O)c1ccc(OCCCC(=O)NCC(c2ccco2)N(C)C)cc1 (stereo not given) | 3.7 | -2.7 | 14.0%[38.3 µM] | -2.8 | 0.6 | 7.6% | 1.1
CCC(C)Sc1nc2c(c(=O)[nH]c(=O)n2C)n1Cc1ccc(Cl)cc1 (stereo not given) | 6.8 | 0.9 | -1.8% | -1.0 | 6.5 | 5.5% | -2.8
O=S(=O)(Nc1ccccc1N1CCOCC1)c1ccc(Cl)s1 | 6.1 | -6.2 | -0.3% | -1.6 | -3.1 | 4.5% | -12.6
COc1ccccc1-c1nnc(NC(=O)c2ccc3ncsc3c2)o1 | -8.4 | ? | -0.2% | 0.1 | ? | 79.4µM* | -7.1
O=[N+]([O-])c1ccc(CNc2ccc(F)cc2)s1 | 6.9 | -7.8 | -0.1% | 6.6 | -1.9 | -29.5% | -6.4
CCN(CC(=O)NCc1cccs1)C(=O)/C=C/c1ccc(C)cc1 | 0.0 | -22.3 | 7.6% | -3.1 | 3.4 | nt | -1.5
COc1ccccc1NC(=O)COc1cc(Br)c(CNCCCN2CCOCC2)cc1OC | 5.7 | 0.0 | 1.4% | 2.2 | 0.0 | -1.5% | -10.6
COc1ccc(N2CCN(C(=O)CCCn3c(=O)[nH]c4cc(Cl)ccc4c3=O)CC2)cc1 | -2.2 | 2.1 | 3.7% | 4.1 | 2.4 | 1.1% | 18.1
c1ccc(CSC2=NCCCN2)cc1 | 7.5 | 7.2 | -2.6% | -3.6 | 0.3 | 10.5% | -8.9
CC[N+](CC)(CC)CCOc1ccc(/C=C/c2ccccc2)cc1 | -1.4 | -0.4 | ? | -2.5 | 3.0 | -14.6% | -14.4
C/C(O)=C(/N=O)C(=O)Nc1ccccc1 | 6.2 | -7.0 | 0.6%[38.3 µM] | -1.8 | 4.0 | -11.7% | -5.6
COc1cc(C(=O)NC(=S)NNC(=O)c2ccc3c(c2)OCO3)cc(OC)c1OC | 13.0 | -6.3 | 0.8% | 1.8 | -19.1 | 10.3% | -4.1
CC(c1nnc(SCC(=O)Nc2cccnc2Cl)n1-c1ccccc1)N(C)C (stereo not given) | -34.5 | 13.9 | 2.1% | -0.7 | 1.2 | -11.4% | -4.5
O=C(O)CN1C(=O)/C(=C\c2ccc(OC(=O)c3ccco3)cc2)SC1=S | ? | -9.3 | 1.8% | -7.8 | ? | 44.7µM* | -12.5
O=C(CC1C(=O)NCCN1Cc1ccccc1)NC1CCCCCC1 (stereo not given) | -4.7 | -1.0 | -0.9% | -3.7 | 6.1 | 3.2% | -18.8
O=C(Nc1ccccc1)C(O)C(O)C(=O)Nc1ccccc1 (stereo not given) | 3.1 | 3.5 | -0.4% | -4.5 | 3.3 | 19.6% | -20.3
CCN(C[C@H]1N[C@@](CC)(C(=O)OC)[C@H]2C(=O)N(Cc3ccccc3)C(=O)[C@@H]12)S(=O)(=O)c1ccc(OC(F)(F)F)cc1 | nt | -0.3 | 0.6% | -1.1 | 2.1 | nt | -1.4
CCCOc1ccccc1NC(=O)c1c(-c2ccccc2)noc1C | 7.6 | 15.7 | 1.8% | -1.8 | 17.6 | -3.3% | 3.0
O=C(Cn1nnc(-c2cccs2)n1)NCc1cccs1 | -6.5 | -4.9 | 1.7% | -0.5 | 12.1 | 15.5% | 0.8
Cc1ccc(Oc2cc(-n3nc(C)cc3C)ncn2)cc1 | -4.7 | 11.1 | 4.1%[38.3 µM] | 1.7 | 8.6 | 4.7% | -6.9
Cc1ccccc1-c1cc(C(=O)Nc2sc(C)c(C)c2C(N)=O)c2ccccc2n1 | -3.9 | -14.3 | 5.8% | -0.1 | -4.3 | 50.1µM* | 4.5
Cc1c(C(=O)Nc2ccc(F)cc2)nnn1-c1cccc(C(F)(F)F)c1 | -31.0 | 1.9 | 2.0% | 1.1 | 3.5 | -17.8% | -7.7
O=C(Nc1cc(C(F)(F)F)ccc1Cl)C(Sc1ccccn1)c1ccccc1 (stereo not given) | 0.1 | nt | 2.0% | -4.2 | 23.6 | 13.1% | -16.1
CCN(CC)C(=O)Cn1cc(C(=O)C(=O)N(C)C2CCN(C)CC2)c2ccccc21 | 10.6 | 0.0 | -1.5% | 0.1 | 9.9 | 15.9% | 1.1

(continued)
SMILES | TRPV1 PAM | CtBP-E1A inh | PINK1 modulator | D2 ag | Six1-Eya2 blk | Sfp inh | D2 PAM
COc1ccc(CCNC(=O)CSc2nc(C)cc(C)n2)cc1OC | -2.7 | 7.4 | 0.5% | -0.6 | 5.7 | 8.5% | -1.7
CCCCCc1ccc(-c2ccc(OC)cc2)nc1 | -19.9 | 47.5 | -2.7% | 8.6 | 15.8 | -0.5% | -7.7
COc1ccc(-c2nnn(CC(=O)N(CC3CCCO3)C(C(=O)NC(C)(C)C)c3ccco3)n2)cc1OC (stereo not given) | -6.1 | -20.0 | 3.3% | -4.7 | 2.4 | 9.0% | 5.8
Cc1cc(/C=C/C(=O)O)c(C)n1-c1ccc(Cl)cc1 | 9.3 | nt | 0.8% | -0.6 | -14.0 | 6.4% | -25.7
CN(C)c1ccc(S(=O)(=O)N(C)C)cc1NC(=O)Cc1cccc2ccccc12 | 2.2 | -4.1 | 0.2% | -1.9 | -12.6 | 8.5% | -15.4
C(=N\n1cnnc1)/c1cccn1-c1ccccc1 | 2.9 | -8.0 | -0.5% | 1.0 | -2.3 | -8.4% | 7.6

Assay outcomes from PubChem.
